Screening results deposited in PubChem by several laboratories.
ALR inh: blocks human ALR sulfhydryl oxidase activity; purified ALR, DTT oxidation, H2O2 HRP-luminol luminescence; AID 485317; 290,000 tested, 3.8% active; inhibition, % (test concentration not listed); P55789;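 active means mean and each replicate at 75% or more; inconclusive means only one of the two met; inactive means neither met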;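 further: stock transfer was 7.5 nL into about 7.5 µL; 0% = neutral wells and 100% = wells with inactivated enzyme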
Target sequence (P55789 whole entry, looked up): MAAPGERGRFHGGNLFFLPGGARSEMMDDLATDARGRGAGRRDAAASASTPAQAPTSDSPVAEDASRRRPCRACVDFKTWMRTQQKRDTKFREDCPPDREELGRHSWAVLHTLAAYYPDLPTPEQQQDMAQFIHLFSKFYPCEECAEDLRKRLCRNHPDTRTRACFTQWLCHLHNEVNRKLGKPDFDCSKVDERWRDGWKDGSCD
rRNA inh HTS: inhibitors of bacterial rRNA selective over humanized ribosomes; E. coli WT GFP vs humanized-ribosome RFP mutants, fluorescence, 24 h; hits give low values; DMSO median 0, no signal -100; 350,000 tested, 1.6% active; GFP signal change (wild-type ribosome), % (no concentration beside the values);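 active means significant combined selectivity score with lowered wild-type GFP, culture density cut under 30%, mutant RFP and density less affected; inactive means any of these conditions unmet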; further: one replicate is shown; some compounds called inactive have numbers as strong as hits
FGF22 binding: shifts melting point of recombinant human FGF22 | recombinant FGF22 thermal shift, SYPRO orange fluorescence; percent of sucrose octasulfate shift, DMSO zero | calls only at 9.99 µM | 340,000 tested, 1.5% active;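 active means melting point raised past a set limit in the mean and every replicate; inconclusive means no clear call; three in four hits are not shown here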
Target sequence (Q9HCT0 whole entry, looked up): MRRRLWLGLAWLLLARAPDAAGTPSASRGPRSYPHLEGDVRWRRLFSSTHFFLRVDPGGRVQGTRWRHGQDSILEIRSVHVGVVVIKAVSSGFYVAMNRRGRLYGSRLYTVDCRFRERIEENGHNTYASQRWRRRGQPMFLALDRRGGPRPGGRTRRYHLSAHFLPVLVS
HNF4A DNA FP: change in binding of human HNF4 alpha to DNA | P41235 | activity change, % at 10 µM | 360,000 tested, 0.3% active | HNF4a-FITC DNA binding, fluorescence polarization, 1 h | AID 1224865; in the data active means activity change above about 30%, passing the limit was not always enough;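 further: controls were the assay level and a saturating level of protein; the project sought stronger binding though the title names inhibitors; some compounds called inactive have numbers as strong as hits; positive values seem to mean higher polarization but the record does not say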
AF4-AF9 inh: inhibitors of human MLL-AF4/AF9 interaction; 350,000 tested, 0.47% active; P42568; AlphaScreen, biotin-AF4 peptide binding to FLAG-AF9; inhibition, % at 10 µM;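 active means every replicate reaching a set inhibition limit, whatever the replicate mean, cut at about 25% in these data; inconclusive means mean inhibition reaches that limit but some replicates miss it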;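 further: 0% = plate neutral control median and 100% = total signal loss; the record names both 10 and 1 µM as test concentration; the first replicate is given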
Target sequence (P42568 whole entry, looked up): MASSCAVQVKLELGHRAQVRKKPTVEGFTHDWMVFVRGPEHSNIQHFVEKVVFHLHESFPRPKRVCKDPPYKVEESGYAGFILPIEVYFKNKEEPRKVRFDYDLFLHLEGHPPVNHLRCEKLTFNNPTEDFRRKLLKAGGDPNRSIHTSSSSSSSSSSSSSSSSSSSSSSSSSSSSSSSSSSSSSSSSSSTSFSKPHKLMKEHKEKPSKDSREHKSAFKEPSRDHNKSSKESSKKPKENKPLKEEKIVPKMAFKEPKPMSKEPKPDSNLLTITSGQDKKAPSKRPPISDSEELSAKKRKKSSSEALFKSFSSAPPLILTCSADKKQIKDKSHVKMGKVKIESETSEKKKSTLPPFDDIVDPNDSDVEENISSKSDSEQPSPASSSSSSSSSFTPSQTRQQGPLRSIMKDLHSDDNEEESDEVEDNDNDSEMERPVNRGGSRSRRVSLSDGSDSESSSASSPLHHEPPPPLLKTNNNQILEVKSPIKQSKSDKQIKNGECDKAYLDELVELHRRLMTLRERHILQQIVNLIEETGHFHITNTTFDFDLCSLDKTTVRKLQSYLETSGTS
E coli growth: inhibitors of Escherichia coli growth. 330,000 tested, 0.21% active. OD600, 23 h; hits give low values. AID 1053175. OD600 absorbance (concentration not given with the values);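 active means OD600 absorbance below the run mean of sample wells minus 3.6 SD, in any replicate, cut at about 0.56 in these data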;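 further: stock transfer was 300 nL into about 60 µL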
Vif TR-FRET: HIV-1 Vif–A3G interaction blockers – biochemical, TR-FRET, GST-Vif 1-94, biotin-A3G peptide, dose response retest, primary screen (AID 1117319) | TR-FRET GST-Vif / biotin-A3G peptide binding; higher % means a stronger effect; test concentration not given here; strong numbers were not always called active | inhibition, %; hits with a dose series show IC50 in µM | 260,000 tested, 0.57% active;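 active means above the screen mean plus three standard deviations and confirmed in dose response; inconclusive means results disagree or hit not tested in dose response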;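 further: Vif residues 1-94 fused to GST binding biotinylated APOBEC3G peptide 110-148; 0% = full assay without inhibitor and 100% = GST in place of GST-Vif; retest series ran down from 100 µM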
rRNA inh HTS OD600: second read-out of rRNA inh HTS, no call of its own (marks repeat the call); OD600 change, %; measured here: OD600 growth;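 optical density of the mix in the first replicate; 0 = DMSO median and -100 = no signal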
rRNA inh HTS RFP: further read-out of rRNA inh HTS, marked with its call; RFP signal change, %; measured here: RFP humanized mutant strains;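 first replicate; 0 = DMSO median and -100 = no signal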
An asterisk follows results filed as active; i = inactive; ? = inconclusive; . = no result given; & = joins results of further samples. A portion of the library; rates above refer to the full screens.

SMILES	ALR inh	rRNA inh HTS	rRNA inh HTS OD600	rRNA inh HTS RFP	FGF22 binding	HNF4A DNA FP	AF4-AF9 inh	E coli growth	Vif TR-FRET
CCC(=O)N1C[C@H](C)[C@H](OC)CN(C)C(=O)c2cc(NC(=O)c3cnccn3)ccc2OC[C@H]1C	.	0	-2	-1.4	i	.	-0.1	.	.
COc1cccc(C2CC(c3ccc(C)cc3)n3nc(N)nc3N2)c1 (stereo not drawn)	0	-2	-2	0.1	i	-1.9	2.4	0.77	2%
c1ccc(Nc2nc(-c3cccs3)cs2)nc1	37	.	.	.	.	3.0	.	0.66	3%
CO[C@H]1CN(C)C(=O)c2cc(NC(=O)C3CCCC3)ccc2OC[C@H](C)N(C)C[C@@H]1C	.	0	0	-1.2	i	.	0.3	.	.
COCCN1C(=O)/C(=C/c2ccc(N3CCCC3)cc2)SC1=S	-7	15	6	6.5	i	128	2.9	0.78	-9%
O=C(NC1CCS(=O)(=O)C1)OC1CCCCC1 (stereo not drawn)	-3	5	12	15	i	2.0	1.5	0.67	17%
Cc1cccc(NC(=O)Cn2cnc3ccccc3c2=O)c1C	-7	.	.	.	.	1.8	.	0.68	5%
CC(C)CC(=O)N1CC=CC[C@@H](c2ccc(Cl)cc2)N(Cc2ccc(Cl)cc2)C(=O)[C@@H]1Cc1ccccc1	.	13	13	-1.2	i	-3.3	-3.3	.	.
Cc1ccc(-n2ncc3c(NNC(=O)c4ccco4)ncnc32)c(C)c1	.	10	6	0.1	i	4.9	-0.1	0.7	.
C[C@H](CO)N1C[C@H](C)[C@H](CN(C)C(=O)c2ccc(F)cc2)Oc2ncc(C#C[C@@H](C)O)cc2C1=O	.	3	9	-4.3	i	.	-4.3	.	.
CCn1ccnc1CNC(=O)c1ccc(OC2CCN(C(=O)COC)CC2)cc1	-31	1	8	0.4	i	1.0	0.6	0.68	3%
CCCCn1nnnc1C1(C)CCC(=O)N1CCc1ccc(O)cc1 (stereo not drawn)	.	4	9	-6.5	i	-5.5	0.3	.	.
CCOC(=O)CC(c1ccc([N+](=O)[O-])cc1)n1c(C)ccc1C (stereo not drawn)	24	3	4	6.3	i	-3.5	5.6	0.71	6%
O=C(NCC1CCCO1)c1ccc(Cl)c(F)c1F (stereo not drawn)	-21	.	.	.	.	-1.3	.	0.69	1%
C/C(=C\C(=O)c1ccccc1)Nc1ccc(N2CCOCC2)cc1	?	.	.	.	.	0.6	.	0.7	4%
C[C@@H]1CN([C@H](C)CO)C(=O)Cc2cc(NC(=O)Cn3cnnn3)ccc2O[C@H]1CN(C)CC1CC1	.	6	2	-1.8	i	.	-2.1	.	.
O=C(COc1ccc(Cl)cc1)NCc1ccncc1	-10	18	0	1.3	i	-2.0	2.3	0.66	-4%
O=C(NCCOc1ccccc1F)C1CCC(=O)N(CC2CCCCC2)C1 (stereo not drawn)	.	-8	0	2.3	i	-2.2	1.4	0.63	.
CCN1C=C(Cc2ccc(OC)cc2)C2=C(C1)C(c1ccc(OC)cc1)C(C#N)=C(N)O2 (stereo not drawn)	-14	.	.	.	.	8.2	.	0.71	5%
CC1=C(C(=O)Nc2ccc(F)c(F)c2)C(c2cccs2)NC(=S)N1 (stereo not drawn)	-1	1	-3	-0.6	i	3.2	1.0	0.7	-3%
CCN(CC(=O)NCc1cccs1)C(=O)c1ccc(S(=O)(=O)Nc2ccccc2F)cc1	.	0	-4	1.4	.	4.4	-0.5	.	.
C[C@@H]1CN([C@@H](C)CO)C(=O)c2cc(C3=CCCC3)cnc2O[C@@H]1CN(C)Cc1ccc(F)cc1	.	0	-6	1.1	i	.	0.1	.	.
CC(C)C(c1nnnn1Cc1ccco1)N1CCC(C(N)=O)CC1 (stereo not drawn)	.	.	.	.	.	-31	.	0.75	8%
CN(C)CC(NC(=O)c1cccc(S(=O)(=O)Nc2ccc3c(c2)OCO3)c1)c1ccccc1 (stereo not drawn)	-3	0	-2	-0.5	i	1.3	11	0.63	.
CCCc1cc(-c2n[nH]c(C)c2-c2ccc(C(=O)OCC)o2)c(O)cc1O	28	.	.	.	.	-1.5	.	0.72	8%&-12%
CN(CC(=O)Nc1ccc(F)c(F)c1F)C(=O)c1ccc(-n2cncn2)cc1	.	2	10	-1.3	i	-1.6	-1.6	0.67	.
CC(=O)CSc1nc(CCc2ccccc2)c(C#N)c(=O)[nH]1	.	0	0	0.1	i	-1.4	6.3	.	3%
COC(=O)Cc1c(C)nc2nc(-c3ccc(OC)cc3)[nH]n2c1=O	72	.	.	.	.	2.1	.	.	18%
CCCN(C(=O)Cc1ccc(S(=O)(=O)N2CCOCC2)s1)c1c(N)n(Cc2ccccc2)c(=O)[nH]c1=O	.	10	13	0.3	i	18	2.7	0.72	2%
CCCOc1ccc(N2C(=O)CC(N(CCc3ccc(OC)cc3)C(=O)c3ccccc3)C2=O)cc1 (stereo not drawn)	-35	-5	-9	5.2	i	4.0	.	0.68	6%
O=C(COC(=O)Cc1ccc(F)cc1)NC(=O)NC1CCCC1	-1	-4	-3	-1.6	i	-1.4	1.2	0.62	16%
COCC(C)NC(=O)CSc1ncnc2sc(-c3ccccc3)cc12 (stereo not drawn)	-11	-1	-1	2.7	i	-1.9	0.5	0.69	.
CC1CCCCC1NC(=O)CN1CCC(O)(c2ccc3c(c2)OCO3)CC1 (stereo not drawn)	-12	4	-17	-0.8	i	-3.7	-0.3	0.67	?
O=S(=O)(NC1CCc2ccccc21)c1ccc(S(=O)(=O)N2CCCC2)cc1 (stereo not drawn)	-7	-29*	-20*	7.2*	i	-3.3	-7.9	0.69	14%
Cc1ccccc1NC(=O)NC(C)(C)CC(C)(C)C	0	0	0	0.2	i	-0.2	-1.0	0.67	9%
CCOC(=O)C1C(=O)C=C(c2ccc(C)cc2)CC1c1ccc([N+](=O)[O-])cc1 (stereo not drawn)	.	.	.	.	i	8.6	4.3	0.74	.

Part of the list above, in markdown.
| structure | ALR inh | rRNA inh HTS | rRNA inh HTS OD600 | rRNA inh HTS RFP | FGF22 binding | HNF4A DNA FP | AF4-AF9 inh | E coli growth | Vif TR-FRET |
| --- | --- | --- | --- | --- | --- | --- | --- | --- | --- |
| CC(=O)CSc1nc(CCc2ccccc2)c(C#N)c(=O)[nH]1 | . | 0 | 0 | 0.1 | i | -1.4 | 6.3 | . | 3% |
| COC(=O)Cc1c(C)nc2nc(-c3ccc(OC)cc3)[nH]n2c1=O | 72 | . | . | . | . | 2.1 | . | . | 18% |
| CCCN(C(=O)Cc1ccc(S(=O)(=O)N2CCOCC2)s1)c1c(N)n(Cc2ccccc2)c(=O)[nH]c1=O | . | 10 | 13 | 0.3 | i | 18 | 2.7 | 0.72 | 2% |

Continuation.
SMILES	ALR inh	rRNA inh HTS	rRNA inh HTS OD600	rRNA inh HTS RFP	FGF22 binding	HNF4A DNA FP	AF4-AF9 inh	E coli growth	Vif TR-FRET
O=C1C2C3C=CC(C3)C2C(=O)N1c1cccc2cccnc12 (stereo not drawn)	-14	.	.	.	.	0.2	.	0.7	7%
Cc1cc(C)c(C)c(S(=O)(=O)NC2CCCCC2)c1C	-7	-36	-42	-1.5	i	-0.6	-1.3	0.64	.
CC(Oc1ccc(F)cc1)C(=O)NN (stereo not drawn)	.	5	4	-7.5	i	-0.6	-1.6	0.7	0%
O=C(NCc1ccc2c(c1)OCO2)c1cccc([N+](=O)[O-])c1	-5	.	.	.	.	2.6	.	0.77	5%
COc1ccc2c(c1)/C(=C/c1cc(OC)c(OC)c(OC)c1)C(=O)N2	.	-3	12	3.3	i	-0.1	-2.7	.	-9%
CS(=O)(=O)N(CCc1ccccc1)CC(=O)N1CCc2ccccc2C1	-6	.	.	.	.	1.7	.	0.73	-7%
CC(=O)Nc1ccc(-c2nc3c(C)cccc3[nH]2)cc1	-8	.	.	.	.	5.0	.	0.66	-2%
COc1ccc(/C=C/c2c(-c3cccc(C)c3)oc3ccc(N4CCOCC4)cc23)cc1	0	8	6	4.7	i	0.7	1.6	.	.
COc1ccc(CN(C)C[C@H]2Oc3ccc(NC(=O)Cn4cnnn4)cc3CC(=O)N([C@@H](C)CO)C[C@@H]2C)cc1	.	4	8	-0.9	i	.	-0.2	.	.
CN1C(=O)/C(=C/c2ccc(C(F)(F)F)cc2)Sc2ccc(C(=O)N3CCN(c4ccccn4)CC3)cc21	1	-6	-11	0.3	i	4.8	6.2	0.73	.
O=C(O)CCCC(=O)Nc1ccc(C(=O)NCc2cccnc2)cc1	2	.	.	.	.	0.7	.	0.75	5%
CCn1cc(C(=O)N2CCOCC2)c(=O)c2cc(S(=O)(=O)N(C)C3CCCCC3)ccc21	-2	7	8	3.8	.	2.1	-0.4	0.76	65%
Cn1cc(CN2CCCCC2C(=O)Nc2ccc(-n3cccn3)cc2)cn1 (stereo not drawn)	-4	7	9	2.1	i	-2.2	0.8	0.68	.
Cc1noc(COc2ccccc2OCc2onc(C)c2Cl)c1Cl	.	.	.	.	.	3.8	.	0.7	?
O=C1c2ccccc2C(=O)N1CCc1csc(NNc2nc(CCN3C(=O)c4ccccc4C3=O)cs2)n1	4	.	.	.	.	-12	.	0.7	-1%
CCC(c1nnnn1CCC(C)C)N1CCC(C(N)=O)CC1 (stereo not drawn)	-2	.	.	.	.	0.6	.	0.75	-3%
O=C(Nc1ccc(S(=O)(=O)Nc2nccs2)cc1)c1ccc(F)c(S(=O)(=O)N2CCOCC2)c1	1	51	11	34	i	7.5	.	0.7	2%
CCOc1ccc(CN2CCN(Cc3[nH]c4ccc(OC)cc4c3C)CC2CCO)cc1 (stereo not drawn)	8	-13	-22	11	.	-1.6	?	0.64	-4%
CCCc1[nH]nc2c1C(c1ccc(OC)c(Cn3nc(C)c(Br)c3C)c1)C(C#N)=C(N)O2 (stereo not drawn)	.	.	.	.	.	-3.0	.	0.71	1%
COc1ccc(S(=O)(=O)N2CCCCC2)cc1NC(=O)CN1CCN(C(C)=O)CC1	-2	6	6	1.4	i	-4.3	-1.2	0.65	1%
CCOC(=O)c1sc2nc3c(cc2c1N)COC(C)(C)C3	23	.	.	.	.	-2.1	.	0.74	?
O=C(COC(=O)c1cccc(S(=O)(=O)NCc2ccccc2)c1)NC1CC1	-4	-1	9	-0.4	i	1.9	1.4	0.64	.
COc1cccc(NC(=O)N(C)C[C@H]2Oc3cc(-c4ccccc4OC)ccc3S(=O)(=O)N([C@@H](C)CO)C[C@@H]2C)c1	.	-2	-7	3.7	i	.	3.1	.	.
C[C@H]1CCCCO[C@H](CN(C)S(=O)(=O)c2ccc(F)cc2)[C@@H](C)CN([C@@H](C)CO)C(=O)c2cc(NC(=O)c3ccccc3)ccc2O1	.	-1	0	1.4	i	.	0.4	.	.
COc1ccc(-c2csc(NC(=O)[C@H](C)N3C(=O)C4CC=CCC4C3=O)n2)cc1OC (stereo partly drawn)	91*	-13	-23	3.4	i	0.4	6.1	0.68	.
CCSc1oc(-c2ccco2)nc1S(=O)(=O)c1ccc(F)cc1	-8	.	.	.	.	4.4	.	0.68	7%
Cc1cc(C(=O)NCC(=O)OCC(=O)N(C(C)C)C(C)C)ccc1[N+](=O)[O-]	-4	3	8	2.1	i	2.9	4.7	0.6	9%
CCN1C(=O)[C@H]2[C@@H](c3ccc(Cl)cc3)N3C(=O)CN(CC4CC4)C(=O)[C@@]3(Cc3ccccc3)[C@H]2C1=O	-10	9	11	-11	i	-2.9	-2.4	.	.
CCN(CC)CC#CCC(OC)(c1ccccc1)c1ccccc1	.	.	.	.	.	0.7	-1.8	0.63	2%
O=C(CS(=O)(=O)c1cn(Cc2cccc(F)c2)c2ccccc12)N1CCCCC1	-3	.	.	.	.	-0.7	.	0.7	-9%
